gsp antagonist = qHTS for Antagonists of gsp, the Etiologic Mutation Responsible for Fibrous Dysplasia/McCune-Albright Syndrome: qHTS | hit rate 0.4% among 340,000 | Potency, µM (highest dose often 76.9 µM), for inactives: at the highest dose activity change, negative = inhibition, most hits filed as inhibitors | gsp-mutant cells, cAMP HTRF, 30 min; control for the full effect not named in the record; active = falling curve of any shape with a large fitted effect; inconclusive = falling curve, mostly with a smaller effect; inactive = flat or rising curve; cell line not stated here;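 also: intracellular cAMP measured with PDE inhibitor Ro 20-1724 present during compound exposure; potency is read from the fitted curve at half-maximal effect; % is scaled to controls: 0 for no effect and ±100 for the full control effect; nearly all actives have a fitted effect of over 65% in size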
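HTRF cAMP measurement after 30 min RT detection following 30 min, 37C compound treatment alongside […] (added as 300 uM solution) in G418-selected cells seeded at 2000/well and grown 16–24 h.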
ClpP mod = qHTS Assay for Activators of ClpP. purified B. subtilis ClpP, FRET peptide cleavage, 20 min. Potency, µM (top dose mostly 57.5 µM), without a hit: at the highest dose activity change, negative = active. hit rate 1.9% among 340,000; active = well fitted falling curve with a large enough effect; inconclusive = small, poorly fitted or top-dose-only effect; inactive = no such curve, though single readings can be large or run the other way; also: potency is read from the fitted curve at half-maximal effect; the source files actives as falling curves though it sought activators and does not explain the sign; nearly all actives have a fitted effect of over 65% in size; many hits overshoot -100%
Target sequence (P80244 whole entry, looked up): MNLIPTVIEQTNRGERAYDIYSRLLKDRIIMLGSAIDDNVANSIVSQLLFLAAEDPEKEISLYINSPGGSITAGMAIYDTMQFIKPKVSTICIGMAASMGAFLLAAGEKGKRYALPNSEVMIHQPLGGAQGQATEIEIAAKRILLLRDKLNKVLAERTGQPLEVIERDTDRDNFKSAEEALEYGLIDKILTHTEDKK
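Purified B. subtilis ClpP, 10 microg/mL final in Tris/HCl pH8 with KCl, BSA, glycerol and Tween-20, cleaved an Abz/nitrotyrosine-quenched decapeptide. Fluorescence (ex 320, em 430) was read at 0 and 20 min at room temperature. Delta was normalized to 5.8 microM ADEP and DMSO/no-enzyme controls.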
gsp ag = qHTS for Agonist of gsp, the Etiologic Mutation Responsible for Fibrous Dysplasia/McCune-Albright Syndrome: qHTS; Potency, µM (doses to about 76.9 µM), for the others: top-dose activation (cAMP increase), usual class: activators; gsp mutant cells, cAMP HTRF, 30 min; control for the full effect not named in the record; hit rate 0.13% among 340,000; AID 624287, 2012; active = well fitted activation curve with a large enough effect; inconclusive = small, poorly fitted or top-dose-only effect, or another doubt; inactive = no such curve, though single readings can be large or run the other way; cell line not stated here;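 also: phosphodiesterase inhibitor Ro 20-1724 added with compounds to block cAMP breakdown; potency is read from the fitted curve at half-maximal effect; nearly all actives have a fitted effect of over 60% in size; about a fifth of the inactives were tested at one dose only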
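Cells in DMEM/10% FBS with G418 were pretreated with compounds in DMSO plus […] (300 uM stock) for 30 min at 37C. cAMP was measured by HTRF (cAMP-d2 plus anti-cAMP antibody-K) after 30 min at room temperature.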
Menin-MLL FL inh = qHTS Assay for Inhibitors Targeting the Menin-MLL Interaction in MLL Related Leukemias: Competition With Fluorescein Labeled MLL-derived Peptide; FP activity change, % at 61.4 µM; Fluorescence polarization, fluorescein-MLL peptide displacement from menin; 290,000 tested, under 10 active; AID 1766, 2009; inconclusive = falling polarisation curve, or a change in total fluorescence; inactive = total fluorescence flat and polarisation flat or rising; no compound was filed as active; the % refers to the polarisation; negative = inhibition;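 also: % of control where 0% means no effect; inhibitors lower the polarisation; unlabelled MLL peptide was the positive control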
Sfp PPTase inh = qHTS Assay for Inhibitors of Bacillus subtilis Sfp phosphopantetheinyl transferase (PPTase). 4'-phosphopantetheinyl transferase ffp (Bacillus subtilis), Q9F4F7. Biochemical Sfp PPTase activity, qHTS. Potency, µM, inactives show max response, negative = inhibition, actives largely listed as inhibitors. hit rate 3.5% among 310,000; active = well fitted inhibition curve with a large enough effect; inconclusive = small, poorly fitted or top-dose-only effect, or another doubt; inactive = no such curve, though single readings can be large or run the other way;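 also: the enzyme is Sfp with the accession as filed and its product quenches rhodamine fluorescence; potency is read from the fitted curve at half-maximal effect; 0% = enzyme reaction without inhibitor and -100% = no enzyme wells; top concentration of the series not given in the record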
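After 15 min at room temperature with compound, 15 nM Sfp received 5 uM rhodamine-CoA plus 12.5 uM BHQ-2-ybbR (50 mM Hepes pH 7.6, 10 mM MgCl2). Rate came from the fluorescence difference over 30 min, ex 525/em 598 nm.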
TRPML1 inh = qHTS for Inhibitors of the Human Mucolipin Transient Receptor Potential 1 (TRPML1); Mucolipin-1 (Homo sapiens), Q9GZU1; TRPML1-inducible cells, Ca2+ dye fluorescence, FDSS; stronger effect = lower value; inhibition of EC80 agonist-evoked calcium signal; activity change, negative = inhibition, % (no concentration beside the values); hit rate 0.02% among 390,000; AID 624415, 2012; in the data active means activity change below about -50%; inconclusive means about -30% to -50%; inactive means above about -30%;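 also: stimulus is agonist 54-4 at its EC80 concentration; % is scaled to controls: 0 for no effect and ±100 for the full control effect; compound concentration not given in the record; the text of the record puts the active cut at -80%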
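Calcium fluorescence in TRPML1-DL cells induced overnight with Tet: a 110 s read after compound pin addition, then a 110 s antagonist read after challenge with 54-4 at 4 uM final (EC80).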
TRPV1 potentiator = HTS Assay for Compounds that Act as Potentiators of the Vanilloid Receptor 1. Transient receptor potential cation channel subfamily V member 1 (Homo sapiens), Q8NER1. TRPV1-expressing cells, Fluo-8 calcium influx, capsaicin EC20 potentiation; host cell line not named in the record; control for the full effect not named in the record. potentiation, % at 8.33 µM. hit rate 0.02% among 320,000; active means potentiation above 80%; inconclusive means 30% to 80%; inactive means below 30%; also: 0% is about no effect
Target sequence (Q8NER1 whole entry, looked up): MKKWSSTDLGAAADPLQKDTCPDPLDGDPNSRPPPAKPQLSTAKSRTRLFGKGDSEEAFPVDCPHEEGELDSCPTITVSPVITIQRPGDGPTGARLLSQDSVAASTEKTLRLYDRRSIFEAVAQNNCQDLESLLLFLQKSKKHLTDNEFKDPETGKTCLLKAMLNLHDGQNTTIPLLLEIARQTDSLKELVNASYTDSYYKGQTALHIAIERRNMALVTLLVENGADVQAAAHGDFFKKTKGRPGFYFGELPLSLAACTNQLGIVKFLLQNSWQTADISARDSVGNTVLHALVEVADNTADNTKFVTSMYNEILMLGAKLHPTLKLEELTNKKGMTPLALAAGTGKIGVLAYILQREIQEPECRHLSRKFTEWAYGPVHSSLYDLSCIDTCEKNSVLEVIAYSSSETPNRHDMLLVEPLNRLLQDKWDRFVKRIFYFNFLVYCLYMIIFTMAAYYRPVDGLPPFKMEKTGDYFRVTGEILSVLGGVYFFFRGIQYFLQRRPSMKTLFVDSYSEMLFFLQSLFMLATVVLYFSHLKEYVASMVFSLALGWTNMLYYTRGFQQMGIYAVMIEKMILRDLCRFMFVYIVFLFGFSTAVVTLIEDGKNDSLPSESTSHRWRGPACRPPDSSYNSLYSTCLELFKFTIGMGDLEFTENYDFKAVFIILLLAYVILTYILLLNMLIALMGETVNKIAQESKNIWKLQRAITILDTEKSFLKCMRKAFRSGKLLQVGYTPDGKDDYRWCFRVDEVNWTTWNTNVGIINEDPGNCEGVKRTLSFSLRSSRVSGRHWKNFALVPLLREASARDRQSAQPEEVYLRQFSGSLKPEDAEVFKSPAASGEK
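Fluo-8 calcium influx in TRPV1-expressing cells, kinetic read (ex 480/em 520 nm). Compound added and read 3 min for agonist activity, followed by capsaicin at EC20 final and 2 min further read for enhancement.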
Numbers without * were called inactive; ? = inconclusive; · = no result given; [ ] = another dose, or the depositor's remark.

Fields – gsp antagonist	ClpP mod	gsp ag	Menin-MLL FL inh	Sfp PPTase inh	TRPML1 inh	TRPV1 potentiator
O=C(OCC(=O)C12CC3CC(CC(C3)C1)C2)c1cnccn1
    -13.5%	-1.8%	-4.0%	·	-1.4%	15.3	-38.1
COc1ccc(C(C)(C)C)cc1NC(=O)CN(C)C1=NS(=O)(=O)c2ccccc21
    ·	-4.6%	-29.4%	·	·	4.9	·
COC(=O)CCC(NC(=O)OCc1ccccc1)C(=O)NC(CC(C)C)C(=O)OC (configuration not stated)
    -17.7%	-2.6%	-4.0%	4.3	23.5%	7.3	-13.4
O=C1CCCN1c1ccc(S(=O)(=O)N2CCN(c3ccccn3)CC2)cc1
    5.2%	-13.2%	-47.3%[inhibitor]	-0.4	9.1%	10.2	26.6
COc1ccc(N(CC(=O)Nc2cccc(OC)c2)S(=O)(=O)c2c(C)nn(C)c2C)cc1
    -22.8%	-1.2%	2.6%	4.9	12.6%	0.5	24.3
Cc1cc(/C=N/Nc2nc(N)ncc2[N+](=O)[O-])c(C)n1-c1ccccc1F
    ·	·	·	0.2	50.1µM*	·	1.3
Cc1nnc(Nc2ccc(Cl)c(C(F)(F)F)c2)[nH]c1=O
    1.9%	·	-0.9%	-0.5	14.6%	-4.1	26.6
CCOP(=O)(OCC)c1nc(/C=C/c2ccccc2)oc1NCc1ccccc1
    0.6%	?	-0.3%	5.9	-14.4%	2.1	-7.1
O=C(c1ccc2c3c(cccc13)CC2)C1CCCN(C(=O)c2cccnc2)C1 (configuration not stated)
    -8.5%	4.5%	-15.6%	1.4	14.8%	3.7	-13.9
COc1ccc(-c2cn3cccnc3n2)cc1NC(=O)C(C)C
    ·	·	·	-2.5	5.6%	·	6.1
O=C(NCc1ccncc1)Nc1ccc(Cc2ccc(NC(=O)NCc3ccncc3)cc2)cc1
    ·	0.0%	37.1%	·	·	-9.1	·
OC(CN1CCN(c2ccccc2)CC1)Cn1c2ccccc2c2ccccc21 (configuration not stated)
    4.8%	-13.5%	13.5%	-1.8	9.7%	-10.6	-3.7
C=CCN(C(=O)CCC(=O)Nc1cc(C)on1)C(C(=O)NC(C)(C)C)c1cccc(OC)c1OC (configuration not stated)
    2.6%	-0.9%	-18.4%	1.0	9.9%	-13.4	-3.2
CCc1ccc(CNC(=O)Cn2nc(-c3ccc(C)cc3)ccc2=O)cc1
    ·	-21.5%	·	-2.1	-7.0%	-22.7	-2.7
Cn1ncc2c(Nc3ccc4ccccc4c3)ncnc21
    -10.9%	-2.5%	-0.1%	-0.6	4.3%	0.3	-1.2
O=C(N/C(=C/c1cccnc1)C(=O)N1CCOCC1)c1ccccc1F
    -6.6%	0.4%	10.1%[15.4 µM]	1.0	18.1%	2.4	-5.6
C[C@H]1C=C(C(=O)N2CCOCC2)O[C@@H](OCc2ccc(CO)cc2)C1
    0.6%	0.9%	23.4%	-0.1	-9.3%	-3.5	-16.8
C[C@H]1[C@H](C)CC[C@]2(C)CC[C@]3(C)C(=CC[C@@H]4[C@@]5(C)CC[C@@H](O)[C@](C)(C(=O)O)[C@@H]5CC[C@]43C)[C@H]12
    ·	·	·	0.7	6.4%	·	?
O=C(Cc1cccs1)NCc1ccc2c(c1)OCO2
    13.5%	-0.7%	3.5%	1.6	17.0%	25.8	10.8
CC(=O)Nc1ccc(S(=O)(=O)NCCC(=O)N2CCCCC2)cc1
    9.2%	-3.1%	6.7%	·	·	-5.8	-22.4
CCOc1ccc(C(=O)NC(=S)Nc2ccc(NC(=O)c3ccco3)c(C)c2)cc1[N+](=O)[O-]
    -2.4%	-1.6%	-48.6%[inhibitor]	0.2	11.0%	-12.2	0.7
COc1ccccc1OCCNC(=O)C(CCSC)NC(=O)COc1ccccc1 (configuration not stated)
    5.9%	0.3%	16.2%	·	·	-2.4	1.7
OCCC1CN(Cc2cccc3c2OCO3)CCN1C1CCCCC1 (configuration not stated)
    -17.6%	-1.3%	15.2%	-2.2	19.5%	-7.0	-0.8
C/C(=N\NC(=O)NC1CCCCC1)C1CCCCC1
    1.6%	-5.7%	-2.5%	3.4	4.3%	-14.0	-21.3
CC(C)NC(=O)c1ccc(-c2ccccc2C(F)(F)F)o1
    5.3%	-10.4%	-4.3%	-3.1	-4.5%	15.6	11.6
COCc1nc2ccccc2n1Cc1ccc(Br)cc1
    -3.6%	-1.3%	-64.9%[inhibitor]	0.9	-15.6%	-10.9	-3.2
Cc1ccc(/C=N/Nc2nncc(-c3ccccc3)n2)o1
    -9.4%	·	3.3%[15.4 µM]	2.3	-8.9%	13.3	6.8
NC(=O)c1ccc(NC(=O)CS(=O)(=O)c2cn(CC(=O)N3CCCCC3)c3ccccc23)cc1
    7.8%	-2.4%	-5.8%	-0.2	6.6%	-1.7	6.9
COc1ccc(S(=O)(=O)N(C)CC(=O)N2CCN(Cc3ccccc3)CC2)cc1C
    -13.6%	0.8%	-13.1%	1.5	-0.5%	-4.8	4.7
Cc1cc(C(=O)CNCc2ccco2)c(C)n1-c1ccc(F)cc1
    2.2%	-6.4%	?	0.9	-12.2%	-7.2	-34.1
CCCCCCC/C(C)=N/NC(=O)CC(=O)NCCc1ccccc1
    -2.0%	-1.6%	3.7%	-2.5	5.7%	-7.7	-3.9
Cc1ccc(-c2cc3nc(C)cc(C)n3n2)cc1
    -0.1%	·	25.1%	-0.4	7.8%	19.9	2.1
Cn1c(=O)c2c(ncn2CC(=O)OCC(=O)c2ccc(Br)cc2)n(C)c1=O
    ·	-0.1%	25.8%	·	·	-15.3	·
CCOC(=O)C1=C(C)NC(=O)NC1c1ccc(OCC(=O)OC)c(OC)c1 (configuration not stated)
    -10.6%	?	-20.2%	-1.6	4.7%	3.9	0.9
CNC(=O)c1nn(-c2ccc(C)cc2)ccc1=O
    4.3%	-8.1%	9.2%	14.1	35.8%[activator]	20.3	-2.8
Cc1cc(/C=C2\SC(=O)N(C)C2=O)c(C)n1-c1ccc(O)cc1
    ?	-4.0%	7.5%	-0.6	-20.2%	-3.8	6.5
S=C(NCc1ccc2c(c1)OCO2)Nc1ccc2nsnc2c1
    -14.1%	·	14.2%[15.4 µM]	-0.2	-12.6%	3.0	-4.9
CC1CC(C)CN(S(=O)(=O)c2ccc3c(c2)CC(=O)N3)C1 (configuration not stated)
    3.2%	15.1%	20.2%	·	·	-8.9	-5.3
O=C(CSc1ccc(Cl)cc1)Nc1cc(-c2nc3ncccc3o2)ccc1Cl
    ·	·	·	-4.1	-16.5%	·	20.9
Cc1ccc(CCNC(=O)C2CCC(=O)N(Cc3cccc(F)c3)C2)cc1 (configuration not stated)
    1.6%	0.3%	28.5%	0.1	-0.4%	-25.3	20.6
CC(C)c1ccc(CN(C(=O)c2cccs2)C2CCS(=O)(=O)C2)cc1 (configuration not stated)
    -22.5%	?	18.1%[15.4 µM]	0.1	5.8%	27.0	-3.2
CCN(CCCNC(=O)CCc1nc(-c2ccc(OC)cc2)no1)c1cccc(C)c1
    -11.1%	1.6%	4.9%	-0.3	-2.5%	30.9	-4.2
CCOC(=O)c1nn(-c2ccccc2)c2nnc(Cc3ccc(Cl)cc3)c(=O)n12
    -1.6%	-0.7%	13.3%[15.4 µM]	1.0	13.5%	7.4	9.7
COCCN1Cc2cccc(C(=O)Nc3cccc(OC)c3)c2C1=O
    -3.6%	-0.7%	2.7%	1.9	10.4%	-3.4	-1.6
CCN=C1S/C(=C\c2cn(C(C)=O)nc2-c2ccccc2)C(=O)N1CC
    -16.8%	1.7%	-34.1%[inhibitor]	-1.7	-2.9%	2.4	-8.2
COc1cc(/C=N/O)ccc1OCc1ccc(C(=O)O)cc1
    -28.3%	4.3%	15.3%	4.1	6.1%	11.2	-0.9
Cc1cccc(OCCOC(=O)c2ccc(F)c(S(=O)(=O)N3CCOCC3)c2)c1
    -9.3%	-0.8%	2.2%	·	·	-5.5	-23.0
CCCNC(=O)c1onc(CS(=O)(=O)c2cc(C)cc(C)c2)c1C(=O)NCCC
    -7.5%	0.9%	·	·	·	3.5	·
c1cnc2ccc(-c3ccc4ncccc4c3)cc2c1
    8.9%	·	-6.2%	-1.1	9.7%	-17.2	-11.1
O=C(CCS(=O)(=O)c1ccccc1)Nc1ccccn1
    6.6%	·	?	-1.8	11.8%	-2.0	22.1
CCS(=O)(=O)c1ccc(C(=O)Nc2ccccc2OC)c(Cl)c1Cl
    -9.1%	-1.6%	-12.2%	-0.8	2.0%	-2.1	9.8
COc1ccc(-c2noc(CN(C(=O)c3ccc4c(c3)OCO4)C(C)C)n2)cc1OC
    -10.0%	0.0%	-0.3%[15.4 µM]	·	·	30.9	23.6
COCCCNc1nnc(Cc2ccc(Cl)cc2)c(=O)[nH]1
    8.0%	-1.4%	?	-1.8	12.6%	1.1	3.2
COc1ccc(-c2c3c(cc4ncn(Cc5ccccc5)c24)COC3=O)cc1
    -2.9%	3.9%	-6.3%	·	·	4.7	8.7
COc1ccc(CC(=O)Nc2sc3c(c2C(N)=O)CCCC3)cc1
    8.3%	·	20.9%	-2.5	10.9%	48.9	1.1
COc1ccc(NC(=O)c2c(C(F)(F)F)nn(C)c2SCc2ccccc2)cc1
    ?	-1.2%	4.3%	9.6	6.7%	-11.2	2.8
COC(=O)c1ccc(CN2CCC(Oc3cccc(C(=O)N4CCOCC4)c3)CC2)cc1
    3.1%	-0.2%	13.1%	·	18.3%	5.2	4.5

Compound activity: PubChem, National Center for Advancing Translational Sciences (NCATS)
